Resorufin fluor: resorufin region autofluorescence. max dye-equivalent concentration, M. actives 0.04% (n = 59,000). AID 588. Compound fluorescence, resorufin region 547/598 nm, buffer; stronger effect = higher value; active = above 10 nM dye equivalent; inconclusive = 1 to 10 nM; inactive = 1 nM or less; a few of its hits are not listed in these tables; also: highest value over a series up to 38 µM
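Compounds in 100 mM Tris buffer, pH 8.0, incubated 15 min at room temperature, then read with 547 nm excitation and 598 nm emission filters. Fluorescence was converted to dye-equivalent concentration using an on-plate six-point resorufin standard curve.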
TSHR agonist: activates the human thyroid stimulating hormone receptor | P16473 | HEK293-CNG-TSHR cells (CNG channel as cAMP sensor), membrane potential dye, cAMP | Potency, µM (series often up to 57.1 µM), for inactives: top-dose activation, actives largely listed as activators | actives 0.48% (n = 73,000) | AID 926; active = well fitted activation curve of enough size with the parental cells flat; inconclusive = any curve in the parental cells; inactive = parental cells flat and receptor cells flat or falling; also: potency is read from the fitted curve at half-maximal effect; % of control where 0% means no effect; weak receptor curves with flat parental cells got no call and are not listed
Target sequence (P16473 whole entry, looked up): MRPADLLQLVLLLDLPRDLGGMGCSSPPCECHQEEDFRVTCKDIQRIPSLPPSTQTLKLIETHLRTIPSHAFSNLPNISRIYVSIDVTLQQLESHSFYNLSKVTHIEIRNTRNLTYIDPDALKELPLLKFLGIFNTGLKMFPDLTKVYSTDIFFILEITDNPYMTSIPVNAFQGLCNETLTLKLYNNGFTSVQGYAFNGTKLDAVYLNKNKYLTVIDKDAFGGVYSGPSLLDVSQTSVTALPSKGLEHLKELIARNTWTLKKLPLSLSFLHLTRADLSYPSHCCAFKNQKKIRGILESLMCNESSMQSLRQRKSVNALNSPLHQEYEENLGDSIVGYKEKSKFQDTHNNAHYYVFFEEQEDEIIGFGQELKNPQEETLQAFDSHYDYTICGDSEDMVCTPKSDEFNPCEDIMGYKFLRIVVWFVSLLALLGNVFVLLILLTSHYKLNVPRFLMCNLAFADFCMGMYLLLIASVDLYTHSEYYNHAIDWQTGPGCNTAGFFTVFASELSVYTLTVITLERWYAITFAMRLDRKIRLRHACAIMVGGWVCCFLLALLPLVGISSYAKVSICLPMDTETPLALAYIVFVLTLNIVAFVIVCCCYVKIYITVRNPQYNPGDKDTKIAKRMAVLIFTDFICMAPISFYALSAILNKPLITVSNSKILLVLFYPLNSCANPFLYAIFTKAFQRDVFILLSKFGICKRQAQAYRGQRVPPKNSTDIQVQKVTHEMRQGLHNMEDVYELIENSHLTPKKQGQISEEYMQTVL
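HEK 293 cells stably expressing TSHR and a cAMP-gated CNG channel; parental CNG-only cells as counterscreen. Cells preloaded 60 min with membrane potential dye plus 100 uM RO 20-1724, then compound 30 min; fluorescence read at 590 nm.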
A488 autofl: A488 region autofluorescence. compound autofluorescence, A488 spectral region, dye equivalency; stronger effect = higher value. actives 0.1% (n = 59,000). AID 591. max dye equivalency, M; active = above 10 nM dye equivalent; inconclusive = 1 to 10 nM; inactive = 1 nM or less; about half of its hits are not listed in these tables;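 also: highest value over a series up to 38 µM; compound alone in buffer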
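Intrinsic compound fluorescence is measured in 100 mM Tris buffer at pH 8.0 following 15 min incubation at room temperature. Intensities at 480 nm excitation/540 nm emission are calibrated to an on-plate A488 concentration series, giving dye-equivalent concentrations.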
AID923: qHTS Assay for Allosteric/Competitive Inhibitors of Caspase-1: Spectroscopic Profiling in AFC Spectral Region. compound fluorescence, AFC spectral region (405/520 nm); almost no hit is shown here. Potency, µM (series often up to 57.5 µM), inactives show at the highest dose fluorescence increase, actives largely listed as activators. actives 1.1% (n = 75,000); active = well fitted activation curve with a large enough effect; inconclusive = small, poorly fitted or top-dose-only effect;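 also: potency is read from the fitted curve at half-maximal effect; 0% is about no effect; scaled to a free AFC standard on each plate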
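Baseline compound fluorescence (AFC region, 405 nm ex/520 nm em) taken from the intercept of kinetic reads with 50 nM caspase-1 and 5 uM Ac-WEHD-AFC; normalized to an on-plate AFC standard curve; compounds titrated up to 57 uM.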
A647 autofl: compound autofluorescence in A647 spectral region; Compound fluorescence, A647 channel (570/671 nm), Tris buffer; max dye-equivalent concentration, M; 59,000 tested, under 10 active; AID 592; active means above 1 µM dye equivalent; inconclusive means 0.1 to 1 µM; inactive means 0.1 µM or less;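 also: values scaled relative to a standard on each plate; highest value over a series up to 38 µM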
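Tris 100 mM pH 8.0; cpd + A647 stds pin-transferred; 15 min RT; CCD imager, ex 570/em 671. Output = A647-equivalent conc. per cpd conc.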
* marks the source's active call; other numbers are inactive results; i = inactive; ? = inconclusive; · = not tested or not shown; & = joins results of further samples; [ ] = another dose, or the depositor's remark. Not all compounds are listed; count on the stated rates, not on these rows.

SMILES	Resorufin fluor	TSHR agonist	A488 autofl	AID923	A647 autofl
COc1ccc(C2C(C(=O)N3CCN(c4ccccc4)CC3)c3ccccc3C(=O)N2C)cc1OC (configuration not stated)	i	?	i	1.1%	1e-09
Clc1ccc(-c2nnc(-c3cccc4ccccc34)o2)cc1Cl	i	29.3%[11.4 µM]	i	4.4%[11.5 µM]	1e-09
Cc1csc(NC(=O)c2ccc(C)c(S(=O)(=O)N3CCCCC3)c2)n1	i	14.1%	i	0.4%	3.6e-09
CSCC[C@H](NC(=O)OC(C)(C)C)C(=O)N1CCC(C(=O)N[C@@H](C)C(=O)O)CC1	i	?	i	-0.2%	1e-09
N#CC1=C(N)Oc2n[nH]c(-c3cccs3)c2C1c1cccs1 (configuration not stated)	i	20.1%[11.4 µM]	i	-1.1%	3.8e-09
CSc1nnc2c3cc(C)ccc3n(Cc3ccccc3)c2n1	i	?	i	1.0%	1e-09
CCOc1ccc(C(=O)Nc2ccc(N3CCN(C)CC3)cc2)cc1Br	i	-28.0%	i	1.5%	2.35e-08
CCOC(=O)CNC(=O)c1nn(-c2cccc(OC)c2)c(=O)c2ccccc12	i	5.6%[11.4 µM]	i	-0.6%	3.99e-08
N#CC(C#N)=c1ccc2c(c1)NC1(CCCCC1)N=2	i	?	i	4.6%	3.73e-08
CCOC(=O)c1nn(-c2ccccc2C)c(=O)c(C#N)c1C	i	-7.3%	i	1.0%	2.4e-09
CN1C(=O)CC(C(=O)Nc2ccc(F)cc2)SC1=Nc1ccc2c(c1)OCO2 (configuration not stated)	i	-15.7%	i	-1.3%	6.4e-09
CN1[C@@H](CC(=O)c2ccccc2)CCC[C@H]1C[C@H](O)c1ccccc1	i	·	i	·	1e-09
Cc1cccc(N2CCN(C(=O)c3cc4n(n3)C(C(F)(F)F)CC(c3ccco3)N4)CC2)c1C (configuration not stated)	i	-11.6%	i	1.0%	2.7e-09
Cn1ccnc1C(=O)c1cc(=O)c2ccccc2o1	i	?	i	-1.7%	1e-09
CCN(C(=O)CN1CCN(c2ccccc2)CC1)c1c(N)n(Cc2ccccc2)c(=O)[nH]c1=O	i	2.2%	i	0.2%	1.05e-08
N#CC1=C(N)Oc2n[nH]c(-c3cccs3)c2C1c1ccco1 (configuration not stated)	?	4.3%	?	-3.2%	1e-09
CCOC(=O)C1CCN(c2cc(=O)n(C3CCCCC3)c(=O)[nH]2)CC1	i	-3.6%	i	-0.1%	1.87e-08
CC1S/C(=C(\C#N)C(=O)NCc2ccco2)N(Cc2ccco2)C1=O (configuration not stated)	i	0.2%	i	0.8%	1e-09
CO[C@H]1COC(=O)CCC[C@H](C)[C@H](OC)COC(=O)C/C=C\[C@@H]1C	·	-3.1%[11.4 µM]	·	17.3%[11.5 µM]	·
COCCn1cnnc1SCC(=O)c1ccc(S(=O)(=O)N2CCCC2)cc1	i	13.0%	i	4.6%	1e-09
Cc1nn(Cc2ccccc2)c2c1C(c1ccco1)C(C#N)=C(N)O2 (configuration not stated)	·	9.9%	·	-0.7%	·
COc1ccc(OC)c(C2C(C(=O)Nc3ccc(F)cc3)=C(C)Nc3nc(CCCO)nn32)c1 (configuration not stated)	·	-17.0%	·	-0.5%	·
CN(C)c1ncc2nc(-c3cn(C)c4ccccc34)c(=O)n(C[C@H]3CCCO3)c2n1	i	7.9%	i	?	1e-09
O=C1c2ccccc2NC(c2cnc3ccccc3n2)N1O (configuration not stated)	i	2.4%	i	1.2%	4.1e-09
CCN(CC)CCNC(=O)Cn1nc(Cc2cccnc2)c2ccccc2c1=O	·	6.3%	·	-0.7%	·
CSc1cccc(NC(=O)Nc2ccccc2)c1	·	2.5%[11.4 µM]	·	-0.3%	·
COc1ccc(CC(=O)NCc2nnc(SCC(=O)N3CCN(c4ccccc4)CC3)n2C)cc1	i	0.1%	i	-1.6%	1e-09
CCCC(=O)Nc1cc(C)c(NC(=O)c2ccncc2)cn1	i	-0.9%	i	-1.7%	1e-09
O=C(NCCCn1ccnc1)Nc1cccc(Cl)c1	i	-2.7%	i	-0.5%	4.35e-08
C=CCOC(=O)C1=C(C)Nc2nnnn2C1c1cc(OC)ccc1OC (configuration not stated)	i	6.4%	i	-0.1%	1.71e-08
O=C(O)[C@H]1CCCNC1	i	-5.9%	i	-5.1%	6.3e-09
CN(Cc1ccccc1)Cc1ccccc1F	i	11.6%	i	0.9%	4.27e-08
COc1nc(N)nc2c1ncn2[C@@H]1C[C@H](O)[C@@H](CO)O1	i	1.0%[11.4 µM]	i	4.3%[11.5 µM]	5.3e-09
O=C1CN(C(=O)c2ccc(Br)o2)C(c2ccc(F)cc2)c2cc(Cl)ccc2N1 (configuration not stated)	i	?	i	1.0%	1.2e-09
CCN(CC)CCNC(=O)CS(=O)Cc1nc(-c2ccc(C)cc2)oc1C (configuration not stated)	i	-0.9%[11.4 µM]	i	-0.2%	2.83e-08
Cc1ccc(-n2c(-c3ccncc3)nnc2-c2ccco2)cc1	i	13.5%	i	-0.4%	1.29e-08
CC(=O)Nc1cccc(NC(=O)CCn2cnc3cc(C)c(C)cc32)c1	i	15.5%	i	-0.2%	4.87e-08
Cn1c(=O)cc(N2CCc3ccccc32)[nH]c1=O	·	?	·	-1.0%	·
Cc1ccnc(N2C(=O)c3ccccc3C2Nc2cccc(C)c2C)c1 (configuration not stated)	·	0.9%	·	2.3%	·
CCc1nc(N2CCOCC2)c(C#N)c2c1COC(C)(C)C2	i	-5.4%	i	2.4%	1e-09
O=C(NC12CC3CC(CC(C3)C1)C2)C1CCCN1C(=O)NC1CCCCC1 (configuration not stated)	i	?	i	1.4%	2.79e-08
Cc1cc(N2CCN(C(=O)c3ccco3)CC2)n2nc(C)c(-c3ccc(Cl)cc3)c2n1	i	-0.1%	i	1.1%	1.83e-08
CC(C)CN(C(=O)COC(=O)Cc1n[nH]c(=O)c2ccccc12)C1CCS(=O)(=O)C1 (configuration not stated)	i	0.3%	i	-0.9%	1.96e-08
CCOC(=O)c1c(C)[nH]c(C)c1C(=O)CSc1nnnn1-c1ccccc1	i	4.6%	i	-1.6%	1.9e-08
COc1cc2c(cc1OC)-c1cc3ccc(OC)c(OC)c3c[n+]1CC2	i	-2.5%[25.6 µM]	i	-1.6%	2.95e-08

An excerpt of these results, field by field:
Molecule: CN(Cc1ccccc1)Cc1ccccc1F
  Resorufin fluor: i
  TSHR agonist: 11.6%
  A488 autofl: i
  AID923: 0.9%
  A647 autofl: 4.27e-08
Molecule: CCc1nc(N2CCOCC2)c(C#N)c2c1COC(C)(C)C2
  Resorufin fluor: i
  TSHR agonist: -5.4%
  A488 autofl: i
  AID923: 2.4%
  A647 autofl: 1e-09

Following part
SMILES	Resorufin fluor	TSHR agonist	A488 autofl	AID923	A647 autofl
CCc1nnc(NC(=O)c2cccs2)s1	·	-1.6%	·	0.4%	·
COc1ccc(-c2nc(-c3ccc(NC(=O)c4ccncc4)cc3)no2)cc1OC	·	-5.8%	·	0.2%	·
CCCCNc1nc(C)nc2c1nc(-c1ccccc1)n2CC1CCN(C)CC1	·	22.7%	·	0.6%	·
COc1cc(S(=O)(=O)N2CCCC3(CCCCC3)C2)ccc1-n1cnnn1	i	16.5%	i	-0.1%	6.3e-08
C=CCN(CC=C)C(=O)c1ccncc1	i	0.7%	i	0.3%	6.5e-09
CCOc1ccc2nc(NC(=O)CSc3nnc(-c4ccncc4)n3CC3CCCO3)sc2c1 (configuration not stated)	i	-2.3%	i	-0.1%	2.9e-09
CCOC(=O)N1CCC(N2C(=O)c3ccc(C(=O)Nc4ccc(F)cc4F)cc3C2=O)CC1	·	-0.4%	·	2.4%	·
O=C(c1ccc2c(c1)OCO2)N1CCCCC1	·	2.8%	·	-1.9%	·
C[C@@]12CCC(=O)C[C@@H]1CC(=O)[C@H]1[C@H]3CCC[C@]3(C)C(=O)C[C@@H]12 (tested in a mixture with another compound)	i	-12.4%[25.6 µM]	i	-2.2%[25.7 µM]	2.3e-09
O=C(NC1CC1)c1scc2c1OCCO2	i	1.2%	i	0.3%	2e-08
CCC1CCCCN1C(=O)Cn1c(C(=O)OC)cc2sc(Cl)cc21 (configuration not stated)	i	?	i	0.6%	1.29e-08
Cn1c(NCC2CCCO2)nc2c1c(=O)n(Cc1ccccc1)c(=O)n2C (configuration not stated)	i	-2.4%	i	-0.9%	4.21e-08
CCc1cc2c(nc1CC)CCN(CC/C(C)=N/O[C@@H](C)CN1CCCCc3nc(C)c(C)cc31)C2	·	6.4%[11.4 µM]	·	-3.2%[11.5 µM]	·
O=C(O)CCC(=O)c1ccc2c(c1)OCCCO2	i	1.9%	i	-0.3%	8.2e-09
O=C(Nc1cccc(NC(=O)c2ccco2)c1)c1ccc2c(c1)OCO2	i	7.8%	i	4.9%	4.65e-08
CCC(Sc1nncn1C)C(=O)Nc1ccccc1OC (configuration not stated)	i	0.8%	i	-1.0%	6.88e-08
Cc1cc(NC(=O)COc2ccc(Cl)cc2Cl)n(CCC#N)n1	i	9.4%	i	-0.3%	1.77e-08
NC(=O)c1cnn2c(C(F)(F)F)cc(-c3ccc(F)cc3)nc12	i	7.9%	i	-2.6%	1.94e-08
Cn1c(C(=O)N2CCCC(C(=O)O)C2)cc2sccc21 (configuration not stated)	i	7.6%	i	1.4%	4.78e-08
CCNc1ncc2nc(C)c(=O)n(Cc3cccs3)c2n1	i	?	i	11.4%	2.59e-08
COC(=O)c1c(NC(=O)CC2SCC(C(=O)OC)NC2=O)sc2c1CCCC2 (configuration not stated)	·	5.1%	·	-1.4%	·
N[C@H](Cn1ccc(=O)c(O)c1)C(=O)O	i	8.6%	i	-0.4%	2.73e-08&3.35e-08
CCOc1cccc(-c2nnc3sc(C4CCCCC4)nn23)c1	i	·	i	·	2.3e-09
CCOc1cccc2cc(C(=O)Nc3nccs3)c(=O)oc12	i	-5.6%	i	0.1%	2.96e-08
COc1ccc(OC)c(-c2nc3c(C)n[nH]c(=O)c3[nH]2)c1	i	28.2%	i	-0.3%	1e-09
COc1cccc(-c2nnc(NC(=O)Cc3cccs3)s2)c1	i	-9.5%	i	0.0%	1e-08
CC(C)CCn1c(SCC(=O)OCn2nnc3ccccc3c2=O)nc2ccccc2c1=O	i	?	i	-2.5%	1e-09
COc1cc(C(=O)Nc2nc3ccc(S(=O)(=O)N4CCOCC4)cc3s2)cc(OC)c1OC	i	5.1%	i	-2.1%	1e-09
Cc1ccc(-n2nnc3c(=O)oc4ccccc4c32)cc1	i	·	i	-1.4%	3.5e-09
O=C(c1ccco1)N1CCN(C(=O)c2cc(-c3ccccn3)nc3ccc(Cl)cc23)CC1	i	8.6%	i	3.6%	1.21e-08
O=C(c1ccncc1)N1CCC[C@@]2(CCN(c3ccccn3)C2)C1	i	-2.4%	i	0.7%	4.2e-09
COCCSc1nnc(NC(=O)CSCc2ccccc2)s1	i	0.4%	i	-0.6%	3.64e-08
O=C(CSc1nc2c(c(=O)n1-c1ccc(Br)cc1)SCC2)Nc1nccs1	i	?	i	-1.3%	1.65e-08
O=C(c1cc(C(F)(F)F)cc(C(F)(F)F)c1)N1CCC2(CC1)CN(c1ncccn1)C2	i	1.2%	i	0.0%	1e-09
COc1ccc(N2CCN(CCCNC(=O)CC3Oc4ccc(C)cc4NC3=O)CC2)cc1 (configuration not stated)	·	-12.4%	·	-2.8%	·
CC1(C)CC(=O)C2=C(C1)Oc1nc3ccccc3cc1C2C(C#N)C#N (configuration not stated)	i	·	i	·	1e-09
CN(C)c1ccc(CNn2cnnc2SCc2ccccc2F)cc1	i	9.1%	i	0.9%	6.1e-09
Cc1ccc(C)n1-c1ccc(C(=O)N2CCOCC2)cc1	i	4.6%	i	-1.6%	4.1e-09
O=C(O)c1cccc2cccc(-c3cccc4cccc(C(=O)O)c34)c12	i	3.0%[11.4 µM]	i	-0.5%[11.5 µM]	2.8e-09

From PubChem BioAssay
